ClpP mod – qHTS Assay for Activators of ClpP; purified B. subtilis ClpP, FRET peptide cleavage, 20 min; 340,000 compounds, 1.9% hits; AID 651965, 2013; Potency, µM (titrated, usually from 57.5 µM), without a hit: at the highest dose activity change, negative = active; ATP-dependent Clp protease proteolytic subunit (Bacillus subtilis (strain 168)), P80244; active = well fitted falling curve with a large enough effect; inconclusive = small, poorly fitted or top-dose-only effect; inactive = no such curve, though single readings can be large or run the other way; also: potency is read from the fitted curve at half-maximal effect; the source files actives as falling curves though it sought activators and does not explain the sign; nearly all actives have a fitted effect of over 65% in size; many hits overshoot -100%
Target sequence (P80244 whole entry, looked up): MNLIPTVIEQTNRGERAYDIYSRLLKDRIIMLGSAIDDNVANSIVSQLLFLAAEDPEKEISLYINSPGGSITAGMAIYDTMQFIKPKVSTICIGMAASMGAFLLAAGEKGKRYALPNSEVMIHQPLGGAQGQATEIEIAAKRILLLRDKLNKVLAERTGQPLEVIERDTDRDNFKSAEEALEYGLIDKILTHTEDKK
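FRET quenching reversal measured ClpP activation: 10 microg/mL B. subtilis ClpP at pH 8 with the FRET-FV decapeptide, read at 430 nm after 320 nm excitation. The 20-min minus 0-min signal was scaled between DMSO/no-enzyme wells and ADEP (5.8 microM final).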
TRPV1 potentiator – potentiators of human vanilloid receptor 1 (TRPV1); AID 540277; potentiation, % at 8.33 µM; 320,000 compounds, 0.02% hits; TRPV1-expressing cells, Fluo-8 calcium influx, capsaicin EC20 potentiation; host cell line not named in the record; control for the full effect not named in the record; active means potentiation above 80%; inconclusive means 30% to 80%; inactive means below 30%; also: 0% is about no effect
Target sequence (Q8NER1 whole entry, looked up): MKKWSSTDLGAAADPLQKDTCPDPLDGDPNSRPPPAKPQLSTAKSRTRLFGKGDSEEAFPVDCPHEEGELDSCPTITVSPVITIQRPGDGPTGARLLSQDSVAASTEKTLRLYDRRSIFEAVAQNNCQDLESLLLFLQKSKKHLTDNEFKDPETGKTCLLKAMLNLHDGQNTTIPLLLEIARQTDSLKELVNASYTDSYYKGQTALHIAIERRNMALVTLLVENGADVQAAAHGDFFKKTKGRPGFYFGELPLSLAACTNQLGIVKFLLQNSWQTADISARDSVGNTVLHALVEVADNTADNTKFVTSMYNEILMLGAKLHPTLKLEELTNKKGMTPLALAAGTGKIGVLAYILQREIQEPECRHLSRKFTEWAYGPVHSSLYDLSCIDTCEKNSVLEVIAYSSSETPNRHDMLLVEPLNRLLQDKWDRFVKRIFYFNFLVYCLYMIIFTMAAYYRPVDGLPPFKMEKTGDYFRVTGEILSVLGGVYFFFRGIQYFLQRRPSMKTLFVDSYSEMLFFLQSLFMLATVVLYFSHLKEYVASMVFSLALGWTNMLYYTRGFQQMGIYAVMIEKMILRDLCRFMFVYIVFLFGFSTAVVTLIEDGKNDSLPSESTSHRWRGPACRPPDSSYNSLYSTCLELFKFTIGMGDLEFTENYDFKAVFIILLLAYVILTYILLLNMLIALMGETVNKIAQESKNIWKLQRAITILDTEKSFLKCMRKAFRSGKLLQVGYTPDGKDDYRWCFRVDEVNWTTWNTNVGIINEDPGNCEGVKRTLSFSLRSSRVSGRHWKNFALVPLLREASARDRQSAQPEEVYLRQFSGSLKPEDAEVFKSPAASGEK
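Cells expressing TRPV1 were dye-loaded with Fluo-8 and read kinetically: 10 s baseline, 3 min after compound (agonist portion), then 2 min after EC20 capsaicin (allosteric enhancer portion). Calcium-bound dye fluorescence at 480/520 nm.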
Sfp PPTase inh – blocks B. subtilis Sfp PPTase activity; Q9F4F7; Biochemical Sfp PPTase activity, qHTS; Potency, µM, inactives show max response, negative = inhibition, actives largely listed as inhibitors; 310,000 compounds, 3.5% hits; active = well fitted inhibition curve with a large enough effect; inconclusive = small, poorly fitted or top-dose-only effect, or another doubt; inactive = no such curve, though single readings can be large or run the other way;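 also: the enzyme is Sfp with the accession as filed and its product quenches rhodamine fluorescence; potency is read from the fitted curve at half-maximal effect; 0% = enzyme reaction without inhibitor and -100% = no enzyme wells; top concentration of the series not given in the record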
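After 15 min at room temperature with compound, 15 nM Sfp received 5 uM rhodamine-CoA plus 12.5 uM BHQ-2-ybbR (50 mM Hepes pH 7.6, 10 mM MgCl2). Rate came from the fluorescence difference over 30 min, ex 525/em 598 nm.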
PINK1 expr mod – changes PINK1 expression; Potency, µM (titrated, usually from 76.6 µM), for the others: top-dose activation (PINK1 increase), hits mostly activators; AID 624263; 410,000 compounds, 0.2% hits; PINK1 immunofluorescence, high-content cytometry, 24 h; active = well fitted activation curve with a large enough effect; inconclusive = small, poorly fitted or top-dose-only effect; inactive = flat fitted curve, though single readings scatter; cell line not stated here;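 also: potency is read from the fitted curve at half-maximal effect; % of control where 0% means no effect; nearly all actives have a fitted effect of over 65% in size; a mitochondrial uncoupler was the plate control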
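Compound titrations (5 concentrations, 24 h) on a stable cell line; DMSO and CCCP controls. Endpoint: fixed-cell PINK1 immunofluorescence with mitochondrial, cell and nuclear markers, scanned by microplate cytometer.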
TRPML1 inh – inhibitors of human TRPML1 channel; TRPML1-inducible cells, Ca2+ dye fluorescence, FDSS; stronger effect = lower value; inhibition of EC80 agonist-evoked calcium signal; activity change, negative = inhibition, % (concentration not given with the values); 390,000 compounds, 0.02% hits; in the data active means activity change below about -50%; inconclusive means about -30% to -50%; inactive means above about -30%;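 also: stimulus is agonist 54-4 at its EC80 concentration; % is scaled to controls: 0 for no effect and ±100 for the full control effect; the text of the record puts the active cut at -80%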
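Calcium fluorescence in TRPML1-DL cells induced overnight with Tet: a 110 s read after compound pin addition, then a 110 s antagonist read after challenge with 54-4 at 4 uM final (EC80).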
Menin MLL FP FL – displaces fluorescein MLL peptide from human menin. FP activity change, % at 61.4 µM. 290,000 tested, under 10 active. Fluorescence polarization, fluorescein-MLL peptide displacement from menin. AID 1766; inconclusive = falling polarisation curve, or a change in total fluorescence; inactive = total fluorescence flat and polarisation flat or rising; no compound was filed as active; the % refers to the polarisation; negative = inhibition;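 also: % of control where 0% means no effect; inhibitors lower the polarisation; unlabelled MLL peptide was the positive control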
TRPML1 agonist – agonists of human TRPML1 channel; TRPML1-expressing cells, Ca2+ dye fluorescence, FDSS; host cell line not named in the record; reference of the full effect not given here; activation, % (test concentration not listed); Q9GZU1; 410,000 compounds, 0.12% hits; in the data active = activation above about 50%; inconclusive = about 30% to 50%; inactive = below about 30%; also: 0% is about no effect; the text of the record puts the active cut at 80%
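Calcium fluorescence on an FDSS kinetic reader gave the read-out. Tet-induced TRPML1-DL cells were plated overnight, dye-loaded (Ca8 with quencher, 45-90 min, room temperature, dark), then read 110 s after compound addition, and again 110 s after 4uM final 54-4 (EC80).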
* = called active by the depositor; ? = inconclusive; / = no result given; & = joins results of further samples; [ ] = dose if it differs, or a comment. This is a random part of the collection. Share with any hit: about 4.4%.

SMILES	ClpP mod	TRPV1 potentiator	Sfp PPTase inh	PINK1 expr mod	TRPML1 inh	Menin MLL FP FL	TRPML1 agonist
O=C(NC1(C(F)(F)F)C(=O)Nc2c1c(=O)[nH]c(=O)n2Cc1ccccc1)c1ccco1 (configuration not stated)	0.4%	-10	11%	/	12	5.8	0.4
Cc1cccc(C)c1NC(=O)Cn1nc(C)n2cccc2c1=O	1.1%	1	19%	1.0%	-2	-0.7	-0.2
Cc1ccccc1C(=O)Nc1ccc(S(=O)(=O)N2CCN(C)CC2)cc1	0.1%	22	-5%	-0.2%	7	-2.2	0.4
CCN(C(=O)CCS(=O)(=O)c1cc(Br)cc2c1N(C(=O)C1CC1)CC2)c1cccc(C)c1	1.6%	/	/	0.7%	-9	/	-0.2
Fc1cccc(CSc2ccc(-c3ccc4c(c3)OCO4)nn2)c1	0.5%	24	-16%	24%	0	1.6	4.1
O=c1cc(-c2ccccc2)oc2ccc(Cl)cc12	-14%	/	/	-5.2%	6	/	3.1
C/C(N)=C(/C#N)C(=O)COc1ccc(Cl)cc1Cl	/	1	6%	0.3%	-1	1.5	-0.5
COC(=O)c1cc2occc2n1Cc1nc(-c2ccccc2C)oc1C	-0.8%&-4.4%	13	22%	-0.2%&8.0%	5&-4	8.8	-0.3&-0.6
Cc1cccc(CN2CCN(CCCc3ccccc3)CC2)c1	/	24	?	/	/	5.8	/
CC(C)CC(NC(N)=O)C(=O)NCCc1ccc(Cl)cc1Cl (configuration not stated)	-1.1%	8	11%	-1.3%	-10	-2.8	0.0
COc1ccc(OC2C(=O)N(c3ccc(F)cc3)C2c2ccc(OC)c(OC)c2)cc1 (configuration not stated)	0.7%	4	1%	/	24	1.4	0.1
O=C1NC[C@@H](CCCCN2C[C@H](Cc3ccc(O)cc3)N(CCc3ccc(O)cc3)C(=O)C2=O)N(CC2CCCCC2)C1=O	-1.0%	/	/	-0.1%	/	/	-0.7
COc1ccc(S(=O)(=O)Cc2ccc(C(=O)NCc3cccnc3)o2)cc1	0.7%	-10	4%	10%	3	3.8	1.0
O=C(Nc1ccc(C(=O)N2CCCCC2)cc1)c1cccc([N+](=O)[O-])c1	-3.8%	-16	17%	0.3%	-3	/	-0.3
CCOc1ccc(NC(=O)c2c(NC(=O)c3ccco3)sc3c2CCC(C(C)(C)C)C3)cc1 (configuration not stated)	-8.7%	/	/	-0.4%	-1	/	0.1
COc1ccc(CN2C(=O)COc3ccccc3C2c2nc3ccccc3[nH]2)cc1 (configuration not stated)	3.6%	/	/	0.9%	/	/	-0.5
COc1ccccc1CNC(=O)c1cc(-c2ccccc2C)nn1CC1CC(c2cccnc2)=NO1 (configuration not stated)	-1.5%	6	/	1.3%	-15	/	2.4
CCc1nc2ccc(C(=O)N3CCN(C(C)=O)CC3)cn2c1N(CC)C(C)=O	-6.3%	/	/	0.5%	25	/	0.2
CCc1c(C(=O)Nc2ncn(Cc3cccc(C)c3)n2)csc1C	0.4%	9	7%	-3.1%[38.3 µM]	7	-4.7	0.9
O=C(CCS(=O)(=O)c1ccccc1)N(CCCN1CCOCC1)c1nc2ccc(F)cc2s1	-1.0%	9	/	-4.3%	5	/	2.6
COc1cc(C(=O)Nc2ccccc2OCc2cc(=O)n3c(C)csc3n2)cc(OC)c1OC	-6.0%	/	/	2.0%	-14	/	-0.7
CCN1CCN(c2ccc(S(=O)(=O)N3CCCCC3)cc2NC(=O)/C=C/c2ccc(Cl)cc2)CC1	-3.0%	/	/	-0.5%	9	/	1.0
CNc1cncc(-c2cccc(C(=O)NC3CC3)c2)n1	5.1%	/	/	16%	/	/	-0.6
O=C(NCCN1CCOCC1)c1ccccc1N1C(=O)[C@@H]2Cc3c([nH]c4ccccc34)C(c3ccccc3)N2C1=O (some centres not stated)	-11%	-4	7%	1.6%	/	-11	/
COc1ccccc1C(=O)NCC(=O)OCC(=O)N(CC(C)C)c1c(N)n(Cc2ccccc2)c(=O)[nH]c1=O	-5.7%	-7	/	-3.3%	-3	/	0.3
Cc1ccc(Nc2c([N+](=O)[O-])c(=O)oc3ccccc23)cc1C	/	13	0%	1.3%	7	3.3	1.5
CC(=O)N(C(C)=O)c1c(N2CCCC2)c2ccccc2oc1=O	/	-8	-1%	-0.6%	-4	2.5	-0.3
COc1ccccc1NC(=O)CCSCCC(=O)Nc1ccccc1OC	-2.1%	-10	-57%	-0.3%	-6	6.2	1.8
CCOC(=O)C1=C(CC)OC(N)=C(C#N)C1c1ccc(OC)c(C)c1OC (configuration not stated)	-1.6%	-28	5%	1.7%	10	2.0	1.1
CCNS(=O)(=O)c1ccc(NC(=S)NCC2CCCO2)cc1 (configuration not stated)	/	-7	-21%	0.6%	-12	7.4	-0.3
O=C(Cc1ccc(Cl)cc1)NC(=S)Nc1ccccc1O	0.6%	10	12%	8.5%	/	-1.2	/
Cc1c(OCC(=O)N2CCC(C(N)=O)CC2)ccc2c1oc(=O)c1ccccc12	4.3%	7	14%	-0.3%	/	-1.5	/
COc1ccc(CCNC(=O)CSc2nc(N)cc(=O)[nH]2)cc1OC	/	2	18%	-2.8%	1	-2.5	0.9
Cc1ccc(SCCNC(=S)Nc2cc(C)cc(C)c2)cc1	1.5%	1	16%	?	0	-1.8	2.3
Cc1noc2ncnc(NCc3ccccc3Cl)c12	-4.7%	/	/	-0.1%	12	/	0.3
Cc1ccc(/C=C/S(=O)(=O)NCC(=O)OCC(=O)Nc2ccc(C(=O)N(C)C)cc2)cc1	0.9%	0	/	4.3%	16	/	1.2
Cc1cc(Br)ccc1OCCN1CCCC1	-0.3%	6	-25%	-0.5%	26	-0.9	-0.4
CCC(=O)Nc1ccc(Cl)c(NC(=S)NC(=O)c2cc3ccccc3o2)c1	0.3%	-5	-17%	1.6%	-22	-1.7	-0.3
CN1CCN(S(=O)(=O)c2ccc(N3CCc4ccccc4C3)nc2)CC1	/	4	11%	3.0%	56	1.0	-0.5
Cc1ccn(C(=O)c2cc3ccccc3oc2=O)n1	/	0	38%[activator]	/	/	1.5	/
CC(C)NS(=O)(=O)c1ccc(NC(=O)C(C)OC(=O)CCC2CCCC2)cc1 (configuration not stated)	2.6%	-11	/	2.4%	-4	/	2.3
FC(F)(F)c1cnc2c(-c3ccc(Cl)cc3Cl)noc2c1	-2.1%	5	-5%	2.0%	-8	0.1	1.2
O=C(CCc1nc(-c2ccccc2)no1)Nc1cccc(C(=O)NC2CC2)c1	-1.6%	0	/	-0.2%	-11	/	1.0
Cc1sc2ncn(CC(=O)NCC3COc4ccccc4O3)c(=O)c2c1S(=O)(=O)N1CCOCC1 (configuration not stated)	/	13	-2%	-2.7%	-12	0.2	0.8
O=C(CNC(=O)c1cn2ccccc2n1)Nc1ccc(F)c(F)c1	?	-4	/	0.0%	3	/	-0.1
COC(=O)C(Cc1ccccc1)NC(=O)CCC(=O)NC(C)CCc1ccccc1 (configuration not stated)	2.1%	-16	5%	0.2%	6	1.7	-0.5
O=c1cc(-c2ccccc2)nc2cc(-c3ccco3)[nH]n12	4.7%	-17	25µM*	1.9%	33	1.7	2.4
O=C(CCN1CCc2ccccc2C1)Nc1ccccc1	-16%	-10	-24%	-0.3%	4	-0.3	2.0
O=S(=O)(Nc1ccc2cn[nH]c2c1)c1cc(Br)ccc1Br	-4.1%	/	/	2.1%	2	/	0.8
Cc1cccc2sc(N(CCN(C)C)C(=O)/C=C/c3cccs3)nc12	50%	5	32µM*	3.2%	1	1.4	-1.0
CC(OC(=O)c1ccccc1C(=O)N(C)C1CCCCC1)C(=O)NC1(C#N)CCCCC1 (configuration not stated)	0.0%	-4	/	0.6%	-17	/	0.4
Nn1c(Cc2ccccc2)nnc1Cc1ccccc1	/	/	/	-2.6%	-4	/	-0.6
COc1ccc(-n2ncc3c(N4CCN(c5cc(C)ccc5C)CC4)ncnc32)cc1	-17%	-5	9%	-1.0%	0	-0.6	0.2
CC(C)CC(=O)N1CCN(C(=O)c2ccc(-c3ccccc3)cc2)CC1	0.4%	-9	14%	0.3%	-6	-3.5	-0.2
COc1ccccc1NC(=S)NNC(=S)Nc1ccc(OC(F)F)cc1	-1.0%	-6	-27%	1.8%	8	1.1	0.7
Cc1cc(C)c(CN2CCN(C(=O)Cn3ccc(N)nc3=O)CC2)c(C)c1	-1.1%	-1	/	2.3%	4	/	-0.2
COc1ccccc1NS(=O)(=O)c1cc(NC(=O)CCC2CCCC2)ccc1N1CCOCC1	0.9%	4	13%	-0.2%	-2	0.4	0.0
COc1ccc(S(=O)(=O)N2CCCN(CC(=O)Nc3ccc(OC)c(Cl)c3)CC2)cc1	0.5%	/	-9%	-2.2%	2	2.2	1.9
COc1cc(C)nc(N2CCCC(C(=O)Nc3ccccc3Br)C2)n1 (configuration not stated)	-1.7%	-2	17%	-0.3%	-4	-0.2	8.2
Cc1ccc(Cl)cc1NC(=O)c1cc(NC(=O)CCCC(=O)O)ccc1N1CCCCC1	0.1%	2	6%	4.4%	-4	/	-0.2
COC(=O)c1ccc(Cn2cc(Cl)cn2)cc1	2.1%	0	5%	0.5%	10	0.8	0.5
Cc1ccc(S(=O)(=O)c2nc(-c3ccccc3Cl)oc2N(C)C)cc1	-14%	-19	3%	?	10	/	-0.8
COC(=O)c1cccc(Nc2c(-c3ccc(OC)cc3)nc3nc[nH]n23)c1	-3.4%	/	/	5.9%	9	/	-0.3

Ordered by molar mass (ascending): some entries from above.
SMILES	ClpP mod	TRPV1 potentiator	Sfp PPTase inh	PINK1 expr mod	TRPML1 inh	Menin MLL FP FL	TRPML1 agonist
COc1cc(C)nc(N2CCCC(C(=O)Nc3ccccc3Br)C2)n1 (configuration not stated)	-1.7%	-2	17%	-0.3%	-4	-0.2	8.2
O=S(=O)(Nc1ccc2cn[nH]c2c1)c1cc(Br)ccc1Br	-4.1%	/	/	2.1%	2	/	0.8
COc1ccc(S(=O)(=O)N2CCCN(CC(=O)Nc3ccc(OC)c(Cl)c3)CC2)cc1	0.5%	/	-9%	-2.2%	2	2.2	1.9
